2A Renilla – lowers the Renilla signal of an FMDV 2A StopGo reporter; HEK cells with a luciferase reporter of 2A StopGo recoding; Potency, µM (doses to about 57.5 µM), inactives show at the top dose signal change, negative = less light; actives 0.32% (n = 120,000); AID 1745857; active means well fitted falling curve with a large enough effect; inconclusive means small, poorly fitted or top-dose-only effect; inactive means no such curve, though single readings can be large or run the other way; further: nearly all actives have a fitted effect of over 55% in size; overnight with compound
2A firefly – FMDV 2A StopGo reporter, firefly signal; HEK cells with a luciferase reporter of 2A StopGo recoding; Potency, µM (highest dose often 57.5 µM), without a hit: at the top dose signal change, negative = less light; actives 0.23% (n = 120,000); active = well fitted falling curve with a large enough effect; inconclusive = small, poorly fitted or top-dose-only effect; inactive = no such curve, though single readings can be large or run the other way; further: nearly all actives have a fitted effect of over 60% in size; overnight with compound
* marks the source's active call; other numbers are inactive results; ? = inconclusive; & = joins results of further samples; [ ] = dose if it differs, or a comment. On the % scale 0 is the no-effect control and ±100 the full control effect; potency means the concentration at half of the fitted maximal effect.

compound | 2A firefly | 2A Renilla
CCN(CC)c1ccc(N=Cc2c3ccccc3cc3ccccc23)cc1 | 0% | -1%
Cc1cnc(NC(=O)C2CCN(c3ccc(C#N)cn3)CC2)s1 | 13% | 4%
Cc1ccc(-c2noc(-c3ccc(Br)cc3)n2)cc1 | 243%[activator] | 11%
CC(C)N(C(=O)Cn1c(CN2CCCCCC2)nc2ccccc21)c1ccccc1 | -5% | -2%
COCCn1ccc2nc(C)c(C(=O)N3CCN(c4ccccc4)CC3)cc2c1=O | -11% | -14%
c1ccc(Oc2nc(-c3cccnc3)nc3ccccc23)cc1 | -1% | -4%
COc1ccc(NC(=O)c2cnn(-c3ccc(C)cc3)c2-n2cccc2)cc1Cl | -16% | -4%
CCCCn1c(SCC(=O)NCc2ccc(C)cc2)nc2c(sc3ccccc32)c1=O | -15% | 6%
Cn1cc(S(=O)(=O)N2CCCCC2)cc1C(=O)Nc1cccc(C#N)c1 | 4% | 12%
CCC(C(=O)Nc1cccc(OC)c1)n1nnc(C(=O)OC)c1C(=O)OC (stereo not given) | -8% | -5%
Cc1oc2cc(O)ccc2c(=O)c1-c1nc2ccccc2s1 | 0% | 8%
C[C@H](NC(=O)c1ccc2nc(-n3cccc3)sc2c1)C(=O)NCc1ccco1 | 34%[activator] | -8%

Brought forward from above: seven compounds, then new ones.
compound | 2A firefly | 2A Renilla
c1ccc(Oc2nc(-c3cccnc3)nc3ccccc23)cc1 | -1% | -4%
COc1ccc(NC(=O)c2cnn(-c3ccc(C)cc3)c2-n2cccc2)cc1Cl | -16% | -4%
CCCCn1c(SCC(=O)NCc2ccc(C)cc2)nc2c(sc3ccccc32)c1=O | -15% | 6%
Cn1cc(S(=O)(=O)N2CCCCC2)cc1C(=O)Nc1cccc(C#N)c1 | 4% | 12%
CCC(C(=O)Nc1cccc(OC)c1)n1nnc(C(=O)OC)c1C(=O)OC (stereo not given) | -8% | -5%
Cc1oc2cc(O)ccc2c(=O)c1-c1nc2ccccc2s1 | 0% | 8%
C[C@H](NC(=O)c1ccc2nc(-n3cccc3)sc2c1)C(=O)NCc1ccco1 | 34%[activator] | -8%
COc1cc(CNC(=O)c2nccnc2N)ccc1O | 0% | 26%
Cc1ccc(-c2nc3cc(Cl)ccc3o2)cc1NC(=O)c1cc2ccccc2o1 | 55%[activator] | -6%
CCCCc1nnc(NC(=O)c2cc(=O)[nH]c3ccccc23)s1 | 2% | -6%
COc1ccc(OC)c(CNC(=O)c2c3c(nc4ccccc24)C(=O)N(C2CCCCC2)C3)c1 | ? | -15%
COc1ccccc1N1CCN(c2ccc(=O)n(CC(=O)O)n2)CC1 | -21% | -7%
COCCN(CCOC)C(=O)c1cccc(C#N)c1 | 15% | 7%
CN1CCN(CCCNC(=O)c2nc(-c3cccc4[nH]ccc34)no2)CC1 | 90%[activator] | 4%
O=C(O)c1ccc(/C=C/C(=O)c2nc3ccccc3s2)cc1 | 63%[activator] | 6%
CCC(=O)N1CCc2cc(Br)cc(S(=O)(=O)CCC(=O)Nc3ccc(C)c(C)c3)c21 | -14% | -8%
COc1ccc(OC)c(NC(=O)c2nc3nc(C)cc(C(F)F)n3n2)c1 | 16% | 4%
CCc1nn(CC(=O)NCCC(C)C)c(=O)c2cc3occc3n12 | 22% | 14%
COC(=O)c1cc(-c2ccco2)nc2onc(-c3ccccc3)c12 | 0% | 28%
CSc1ccc(NC(=O)c2ccc3c(c2)NC(=O)CS3)cc1 | 5% | 0%[1.06 µM]
CC(=O)N1CCN(C(=O)c2ccc3nc(C)c(C)nc3c2)CC1 | 93%[activator] | -4%
CC1(C)Cc2c(C#N)c(OCC(=O)Nc3cccc(Cl)c3)nc(N3CCOCC3)c2CO1 | -6% | 4%
CC1CCCCC1NC(=S)NCc1ccccc1 (stereo not given) | 0% | 145%[activator]
CCC(CC)NC(=O)COc1ncnc2ccc(Br)cc12 | 10% | 0%
COc1ccc(S(=O)(=O)Nc2nc3ccccc3nc2NCc2ccccc2Cl)cc1 | 15% | 192%[activator]
O=C1CC(c2cc(Br)ccc2F)c2cc3c(cc2N1)OCO3 (stereo not given) | ? | ?
O=C(NN=C1CCCCC1)c1ccncc1 | 22% | 5%
CCOC(=O)c1[nH]c(C)c(CCC(=O)Nc2ccc(N(CC)CC)cc2C)c1C | -12% | -15%
C=CCSc1nc2c(c(=O)[nH]c(=O)n2C)n1Cc1ccccc1Cl | 7% | -2%
COc1ccccc1/C=C/C(=O)C(C#N)c1ccc(C(F)(F)F)cn1 (stereo not given) | 7% | -4%
Cc1cc(C)cc(NC(=O)Nc2ccccc2OCc2cc(=O)n3ccccc3n2)c1 | -15% | -11%
CCOCCc1nn2c(=O)cc(COC(=O)COc3ccccc3Cl)nc2s1 | -15% | -12%
CCC(=O)Nc1cccc(-c2nc3cc(C)ccc3o2)c1 | 172%[activator] | 17%&37%
COc1ccccc1Nc1nc2ccccc2nc1NS(=O)(=O)c1cccc2nsnc12 | 6% | 38%[activator]
CC1(C)Cc2c(sc3c2c(=O)n(CCO)c(=O)n3CCc2ccccc2)CO1 | 21% | 7%
CC(SCc1ccccc1)C(=O)NCc1ccco1 (stereo not given) | 3% | -6%
COCCNC(=O)C1CCN(c2nc3ccccc3o2)CC1 | 0% | -6%
CCN(C(=O)CN(C)S(=O)(=O)c1ccc2c(c1)n(C)c(=O)c(=O)n2C)c1cccc(C)c1 | -10% | -16%
CCCCNc1nc2c(c(=O)n(Cc3ccc(Cl)c(Cl)c3)c(=O)n2C)n1C | -28% | -9%
COc1ccc(NC(=O)CCc2nc3cccnc3n2Cc2cccs2)c(OC)c1 | -26% | -1%
CSc1ccc(C2CC(=O)Nc3nc(N)sc32)cc1 (stereo not given) | 16% | -11%
CCn1nnc2cc(C(=O)Nc3nc(-c4ccc(NC(=O)C(C)(C)C)cc4)cs3)ccc21 | 41%[activator] | -18%
CCOc1ccc(S(=O)(=O)NCCc2csc3nc(-c4cccc(C)c4)nn23)cc1 | ? | 14%
Cc1ccc(CNC(=O)c2nc(S(=O)(=O)Cc3ccccc3F)ncc2Cl)cc1 | -1% | -15%
CN(C1CCCCC1)S(=O)(=O)c1ccc(C(=O)Nc2sc3c(c2C(N)=O)CC(C)(C)NC3(C)C)cc1 | -8% | 15%
CCNC(=O)C1CCCN(C(=O)CCc2c(C)c3ccc(OC)cc3oc2=O)C1 (stereo not given) | 0% | -2%
CCCn1c(NCc2ccc(C)cc2)nc2c1c(=O)n(C)c(=O)n2C | ? | 28µM*
O=C(CN1C(=O)c2cccnc2Sc2ccccc21)N1CCN(C2CCCCC2)CC1 | 18% | -9%
Cc1ccc(CCNC(=O)c2c(C)nn(-c3ccc(F)cc3)c2-n2cccc2)cc1 | 43%[activator] | 51%[activator]
CCOc1cc(C2NC(=O)c3c(sc4c3CCN(C)C4)N2)ccc1OC(=O)c1ccc(Br)cc1 (stereo not given) | -7% | -11%
COCCCNC(=O)c1c(NC(=O)c2cc(=O)c3ccccc3o2)sc2c1CCCC2 | 2% | 4%
CC(NC(=O)CSc1cc(C(=O)NC2CC2)c2ccccc2n1)C1CC1 (stereo not given) | 10% | 7%
COc1cccc(CNC(=O)CSc2ccc(-c3sc(-c4ccccc4)nc3C)nn2)c1 | -9% | 7%
NC(=O)C1CCN(C(=O)COc2ccc3c(=O)c(-c4ccccc4)coc3c2)CC1 | 133%[activator] | -5%
COc1ccc2c(c1)c1c(c(=O)n(-c3ccccc3)c(=O)n1CC(=O)NCc1ccc(C)cc1)n2C | -6% | -2%
N#Cc1ccc(N)c(C(F)(F)F)c1 | 20% | 16%
O=C(CCc1ncc(-c2ccccc2Cl)o1)Nc1ccccc1 | 9% | 5%
CC(C)C(C)NC(=O)CCC(=O)c1ccc2c(c1)CCCC2 (stereo not given) | 0% | 17%
Cc1ccc(-c2cc(C(=O)NC3CCCC3)c3cc(Br)ccc3n2)cc1C | 35%[activator] | 26%
O=C(CS(=O)(=O)c1cccc2nsnc12)Nc1ccccc1Cl | 11% | 29%
CCCCCCCCN1C(=O)N2Cc3cc(OC)ccc3C2CS1(=O)=O (stereo not given) | ? | ?
CCOc1ccc(NS(=O)(=O)c2ccc3[nH]cc(C(=O)NCCc4ccccc4)c(=O)c3c2)cc1 | 54%[activator] | -6%
CC1CC(=O)Nc2cc(S(=O)(=O)N3CCN(c4ccccc4F)CC3)ccc2S1 (stereo not given) | ? | ?
CCOc1ccccc1NC(=O)c1c(NC(=O)C(C)Oc2ccc(Cl)cc2)sc2c1CCCCC2 (stereo not given) | -22% | -2%
CC(=O)c1cccc(NC(=O)c2nc(-c3ccccc3)n(-c3cccc(Cl)c3)n2)c1 | -20% | -1%
Cc1ccc(NS(=O)(=O)c2ccc3nc(-c4ccccc4)[nH]c3c2)c(Cl)c1 | 4% | 200%[activator]
CCC(C(=O)Nc1cc(OC)ccc1OC)n1nc(-c2ccccc2)c2c(c1=O)CCCC2 (stereo not given) | 7% | 23%

More entries.
compound | 2A firefly | 2A Renilla
CCCCN(CC)C(=O)C1CCC(CNS(=O)(=O)c2cccc3nsnc23)CC1 (stereo not given) | ? | ?
COc1ccccc1CCNC(=O)Cn1nc(C(N)=O)c2ccccc2c1=O | -2% | -7%
CCc1cccc(NC(=O)c2ccc(CNS(=O)(=O)c3ccc4c(c3)C(C)(C)C(=O)N4C)cc2)c1 | ? | ?
CC(CNC(=O)C1CCN(S(=O)(=O)c2ccc3c(ccn3C)c2)CC1)c1ccccc1 (stereo not given) | -16% | -13%
Cc1c(C(=O)Nc2c(F)cccc2F)sc2ncn(Cc3ccccc3F)c(=O)c12 | -13% | -10%
CC1=C(C(=O)OC2CCCC2)C(c2c(F)cccc2Cl)CC(=O)N1 (stereo not given) | 0% | 17%
CCCCC1CCC(C(=O)Nc2c(C(C)C)cccc2C(C)C)CC1 (stereo not given) | 7% | -2%[1.06 µM]
CCCC(NC(=O)c1ccc(Cl)nc1)c1ccccc1 (stereo not given) | -5% | 14%
O=C(Cn1cnc2ccccc2c1=O)OCC(=O)c1ccc2c(c1)OCCO2 | 14% | -6%
CCOC(=O)c1ccc(S(=O)(=O)Nc2ccccc2-c2nnc3n2CCCCC3)cc1 | -5% | 0%
Cc1noc(C(C)Nc2ccc(N3CCCC3=O)c(Cl)c2)n1 (stereo not given) | 12% | -8%
CN(Cc1ccccc1N1CCOCC1)C(=O)c1ccc2c(c1)S(=O)(=O)c1ccccc1C2=O | -1% | 4%[1.06 µM]
COc1cc(C2CC(=O)Nc3c2c(C)nn3-c2ccc3nncn3n2)cc(OC)c1OC (stereo not given) | 14% | 6%
Cc1ccc(N2CCN(C(=O)NCc3noc4ccccc34)CC2C)cc1 (stereo not given) | 18% | 39%[activator]
CCc1ccc(NC(=O)CSC2=Nc3ccccc3C3=NC(CCC(=O)NCc4cccs4)C(=O)N23)cc1 (stereo not given) | 2% | 13%
O=C(NCc1ccco1)c1ccc(Cn2c(SCc3ccccc3)nc3cccnc32)cc1 | 42%[activator] | 15%
COc1ccc(S(=O)(=O)Nc2cccc(-c3ccc(N4CCCCCC4)nn3)c2)cc1F | 70%[activator] | 222%[activator]
Cc1ccc2nc(/C(C#N)=C/c3cc(Br)c(O)c(Br)c3)[nH]c2c1 | 275%[activator] | 46%[activator]
Cc1cc(OCc2nc3c(C)cccc3[nH]2)ccc1Cl | 153%[activator] | 6%
CCCn1c(SCc2nc3ccccc3o2)nc2ccccc2c1=O | -5% | -6%
O=C(Nc1ccc(O)cc1)c1cc(-c2ccco2)nc2ccccc12 | 77%[activator] | 13%
COC(=O)c1c(NC(=O)c2ccc(S(=O)(=O)N3CCC(C)CC3)cc2)sc2c1CCN(C)C2 | -17% | 41%[activator]
CCNc1oc(-c2ccc(COc3ccc(Cl)cc3)o2)nc1C#N | 0% | -9%
O=C(COc1cccc(Br)c1)Nc1ccc2[nH]ncc2c1 | 20% | 2%
Nc1nc(NCCc2ccc(F)cc2)c2[nH]cnc2n1 | 0% | 12%
CC(C)c1ccc(NC(=O)CSc2nc3ncc(Cl)cc3[nH]2)cc1 | -8% | -19%
Fc1ccc(CNC(=S)Nc2ccc(Nc3ccccc3)cc2)cc1 | ? | ?
CCCCn1nc(C(=O)Nc2nc(-c3cc(F)ccc3F)cs2)c2ccccc2c1=O | 0% | -7%
O=C(NC1(C(F)(F)F)C(=O)Nc2c1c(=O)[nH]c(=O)n2CCc1ccccc1)c1ccc(Cl)cc1 (stereo not given) | -18% | -14%
CCc1ccc(-n2c(N3CCN(c4cccc(C)c4C)CC3)nc3ccccc3c2=O)cc1 | -18% | -19%
Cc1ccc(NC(=O)c2nc3ccccc3nc2N2CCN(C)CC2)cc1Cl | -21% | -20%
CCn1cc(S(=O)(=O)c2ccccc2)c(=O)c2cc(F)c(N3CCN(c4ccccc4)CC3)cc21 | 12% | -9%
N=c1ccn(O)c2ccccc12 | 27% | -7%[1.06 µM]
O=C(N/N=C/c1ccccc1Cl)c1ccc(Cl)s1 | 115%[activator] | 20%
CCc1ccc2c(c1)-c1ccccc1S(=O)(=O)N2CC(=O)NCc1ccncc1 | 5% | 0%
CCCOc1c(Cl)cc(/C=C(/C#N)C(=O)OC)cc1OCC | -4% | -6%
Cc1ccc(OCc2nc(-c3ccc(C(=O)NCCc4ccc(Cl)cc4)cc3)oc2C)cc1 | 1% | -13%
Cc1cccc(N2C(=O)CSC23C(=O)N(Cc2cccc(C(F)(F)F)c2)c2ccccc23)c1 (stereo not given) | ? | ?

Assay outcomes from PubChem BioAssay.
